# Screens: PubChem, several laboratories
# UCH37 inh: inhibitors of human deubiquitinating enzyme UCH37; Q9Y5K5; purified proteasome/UCH37, Ub-AMC cleavage fluorescence; inhibition, % (test concentration not listed); hit rate 0.33% among 330,000; AID 588478;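 active means mean of two replicates above 20%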;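 further: 0% = compound-free wells with enzyme and 100% = wells lacking proteasome; stock transfer was 100 nL into about 20 µL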
#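 Signal – fluorescence, ex 355 nm, em 460 nm · System – Proteasome-bound UCH37 · Input – 0.15 nM proteasome as dispensed · Timing – 30 min preincubation with enzyme, 25 min cleavage at room temperature · Read-out basis – percent inhibition of cleavage signal versus uninhibited and no-proteasome wells · Medium – Tris-HCl pH 7.4 with ATP-MgCl2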
# Ecoli rRNA inh: inhibitors of bacterial rRNA selective over humanized ribosomes. hit rate 1.6% among 350,000. GFP signal change (wild-type ribosome), % (concentration not given with the values). AID 720706. E. coli WT GFP vs humanized-ribosome RFP mutants, fluorescence, 24 h; hits give low values; DMSO median 0, no signal -100;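 active means significant combined selectivity score with lowered wild-type GFP, culture density cut under 30%, mutant RFP and density less affected; inactive means any of these conditions unmet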; further: one replicate is shown; some compounds called inactive have numbers as strong as hits
# FGF22 binding: shifts melting point of recombinant human FGF22; recombinant FGF22 thermal shift, SYPRO orange fluorescence; percent of sucrose octasulfate shift, DMSO zero; hit rate 1.5% among 340,000; calls only at 9.99 µM; Q9HCT0;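 active means melting point raised past a set limit in the mean and every replicate; three in four hits are not shown here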
# HNF4A DNA FP: change in binding of human HNF4 alpha to DNA; HNF4a-FITC DNA binding, fluorescence polarization, 1 h; activity change, % at 10 µM; hit rate 0.3% among 360,000; AID 1224865; in the data active means activity change above about 30%, passing the limit was not always enough;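 further: controls were the assay level and a saturating level of protein; the project sought stronger binding though the title names inhibitors; some compounds called inactive have numbers as strong as hits; positive values seem to mean higher polarization but the record does not say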
# Target sequence (P41235 whole entry, looked up): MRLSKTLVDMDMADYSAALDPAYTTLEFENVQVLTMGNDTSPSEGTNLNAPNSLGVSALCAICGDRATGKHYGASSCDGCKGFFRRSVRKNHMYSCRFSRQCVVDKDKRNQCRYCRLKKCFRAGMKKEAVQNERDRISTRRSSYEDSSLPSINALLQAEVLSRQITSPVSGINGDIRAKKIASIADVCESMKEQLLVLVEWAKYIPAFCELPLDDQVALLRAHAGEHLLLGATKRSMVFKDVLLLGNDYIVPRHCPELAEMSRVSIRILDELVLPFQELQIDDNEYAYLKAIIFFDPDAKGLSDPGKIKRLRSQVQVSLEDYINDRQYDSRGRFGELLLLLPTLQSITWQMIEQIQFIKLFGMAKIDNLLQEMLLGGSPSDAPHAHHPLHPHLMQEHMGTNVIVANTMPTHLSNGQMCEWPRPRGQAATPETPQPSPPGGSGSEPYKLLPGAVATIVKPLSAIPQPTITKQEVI
# ALR H2O2 inh: inhibitors of human sulfhydryl oxidase ALR; P55789; purified ALR, DTT oxidation, H2O2 HRP-luminol luminescence; inhibition, % (no concentration beside the values); hit rate 3.8% among 290,000;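 active means mean and each replicate at 75% or more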;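 further: stock transfer was 7.5 nL into about 7.5 µL; 0% = neutral wells and 100% = wells with inactivated enzyme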
# Target sequence (P55789 whole entry, looked up): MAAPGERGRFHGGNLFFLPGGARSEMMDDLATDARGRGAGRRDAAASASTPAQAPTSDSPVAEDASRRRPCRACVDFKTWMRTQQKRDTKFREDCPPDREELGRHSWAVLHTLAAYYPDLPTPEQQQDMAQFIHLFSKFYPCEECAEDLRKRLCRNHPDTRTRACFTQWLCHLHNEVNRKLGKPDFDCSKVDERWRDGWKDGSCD
# B2AR ag: agonists of human beta-2 adrenergic receptor inducing internalization. P07550. Am2.2-beta2AR cells, FAP receptor internalization, flow cytometry; reference of the scale not given here. response, % (no concentration beside the values). hit rate 0.43% among 340,000. AID 504454;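 active means response above a set limit, near 3 SD of response in nonfluorescent compounds, cut at about 42% in these data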;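 further: stock transfer was 100 nL into about 11 µL; a reference agonist was the positive control; negative values mostly stem from fluorescent compounds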
# Target sequence (P07550 whole entry, looked up): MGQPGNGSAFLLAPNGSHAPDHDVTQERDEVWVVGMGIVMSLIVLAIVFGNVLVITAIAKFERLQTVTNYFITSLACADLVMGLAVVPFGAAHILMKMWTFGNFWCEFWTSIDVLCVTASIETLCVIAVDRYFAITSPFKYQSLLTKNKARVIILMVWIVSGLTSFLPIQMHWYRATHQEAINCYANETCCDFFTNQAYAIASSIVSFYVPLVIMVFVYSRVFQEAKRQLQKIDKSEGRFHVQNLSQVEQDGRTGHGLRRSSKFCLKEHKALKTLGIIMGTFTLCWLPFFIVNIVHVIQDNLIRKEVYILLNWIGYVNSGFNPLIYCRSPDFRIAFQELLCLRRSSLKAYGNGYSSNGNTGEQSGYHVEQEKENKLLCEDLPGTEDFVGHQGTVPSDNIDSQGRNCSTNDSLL
# E coli growth: inhibitors of Escherichia coli growth. OD600, 23 h; hits give low values. OD600 absorbance (no concentration beside the values). hit rate 0.21% among 330,000;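 active means OD600 absorbance below the run mean of sample wells minus 3.6 SD, in any replicate, cut at about 0.56 in these data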;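 further: stock transfer was 300 nL into about 60 µL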
# Ecoli rRNA inh OD600: recorded beside Ecoli rRNA inh, whose call it bears; OD600 change, %; measured here: OD600 growth;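 optical density of the mix in the first replicate; 0 = DMSO median and -100 = no signal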
# Ecoli rRNA inh RFP: second read-out of Ecoli rRNA inh, no call of its own (marks repeat the call); RFP signal change, %; measured here: RFP humanized mutant strains;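 first replicate; 0 = DMSO median and -100 = no signal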
# Starred values were filed as active, the others as inactive; i = inactive; / = no result given. These rows are one share of the data, so the mix of outcomes need not match the whole.
cpd	SMILES	UCH37 inh	Ecoli rRNA inh	Ecoli rRNA inh OD600	Ecoli rRNA inh RFP	FGF22 binding	HNF4A DNA FP	ALR H2O2 inh	B2AR ag	E coli growth
1	O=S(=O)(NCCc1csc(-c2ccc(C(F)(F)F)cc2)n1)c1ccc2c(c1)OCCO2	4.8	8	-44	3.6	i	-2.5	-10	5	0.76
2	C=CCN1CC(O)=C(c2nc3ccccc3[nH]2)C1=N	3.6	15	4	7.1	i	1.5	83*	-4	0.68
3	CC(C)(C)c1ccc(OCCNCc2ccccc2)cc1	4.6	1	-18	0.6	i	-2.9	/	2	0.59
4	Cc1ccc(-c2csc(NC(=O)CSc3nc4ccccc4c(=O)n3CCCN(C)C)n2)cc1	8.5	-51	-77	-9.3	i	-1.4	99*	13	0.57
5	CCOc1ccccc1CNC(=O)Cn1ccc2cc(S(=O)(=O)N3CCCCCC3)ccc21	2.0	-1	-12	8.5	i	1.6	-14	0	0.68
6	O=C(Nc1ccc2c(c1)OCCO2)c1ccc(Br)o1	4.4	/	/	/	/	0.7	1	-3	0.63
7	Cc1cccc(CCNC(=O)c2cc(S(=O)(=O)N3CCCC3)cn2C)c1	5.4	-2	-3	-1.4	i	-3.7	-15	-5	0.76
8	CC1=Nc2cc(C(=O)NCCCN3CCOCC3)ccc2Sc2c(C)ccc(C)c21	4.3	-2	-9	-0.7	i	2.9	2	12	0.64
9	O=C1c2ccccc2-c2c1cccc2C(=O)N1CCCCCC1	-0.1	-10	-16	-4.8	i	0.1	1	-7	0.68
10	COc1ccc(CCN=C(N)NS(=O)(=O)c2ccc(C)c(C)c2)cc1OC	-0.4	0	-7	-1.4	i	-0.8	-22	-2	0.69
11	CCN1CCN(C(c2cc3cc4c(cc3[nH]c2=O)OCO4)c2nnnn2C(C)(C)CC)CC1 (stereo not drawn)	i	/	/	/	/	3.2	/	0	0.68
12	CCCC(=O)Nc1ccc(NC(=S)NC(=O)c2cccs2)cc1	2.5	2	3	-1.6	i	-0.7	17	-19	0.73
13	NC(=O)c1cc(S(=O)(=O)N2CC=C(c3ccccc3)CC2)cs1	1.3	5	7	-13	i	4.2	-7	5	0.71
14	COc1ccc(CCNC(=O)CCC(=O)N2CCOc3ccc(Cl)cc32)cc1OC	2.9	-18	-29	4.1	i	-0.3	-9	-3	0.81
15	Cc1ccc(-n2c(Cn3nc(C(F)(F)F)cc3C)n[nH]c2=S)cc1	0.5	16	11	-4.1	i	-2.8	44	4	0.72
16	COc1ccc(C(=O)CSc2nnc(-c3cccnc3)n2Cc2ccco2)cc1	2.6	/	/	/	/	1.7	24	-7	0.72
17	COC(=O)[C@]1(Cc2ccccc2)N[C@H](CN(C)C(=O)Nc2ccc(Cl)cc2)[C@@H]2C(=O)N(Cc3ccccc3)C(=O)[C@@H]21	6.5	-19	-27	1.8	i	-1.5	/	2	0.63
18	CC1(C(=O)NS(=O)(=O)Cc2cccc(Cl)c2)CCN1C(=O)C1CCCCC1 (stereo not drawn)	/	0	-1	-1.1	i	-2.4	/	/	/
19	Cc1ccc(CC(=O)N(Cc2ccccc2)c2ccccn2)cc1	1.4	-4	-11	-1.4	i	0.2	-1	16	0.68
20	CC1(C(=O)Nc2ccc3[nH]ncc3c2)CCN1C(=O)C/C=C/c1ccccc1 (stereo not drawn)	/	0	-11	1.8	i	4.2	/	/	/
21	Cc1ccc(NC(=S)NNC(=O)Nc2ccccc2)cc1	/	-24	-32	35	i	-2.8	97*	-4	/
22	O=C(COC(=O)C1C2CC3OC(=O)C1C3C2)Nc1ccc(F)cc1 (stereo not drawn)	3.4	8	7	0.1	i	-0.8	-1	-2	0.68
23	Nc1cc(C(=O)OCC(=O)Nc2ccc(N3CCOCC3)cc2)ccc1Cl	0.0	/	/	/	i	2.8	-2	2	0.66
24	COc1cc(OC)cc(C(=O)Nn2cc(C(=O)Nc3ccccc3F)c3ccccc3c2=O)c1	-2.2	16	-9	-0.4	i	-3.2	-8	15	0.73
25	C[C@]12CCC(O)CC1CCC1C2CC[C@]2(C)C(c3cc(C(F)(F)F)n[nH]3)CCC12 (stereo partly drawn)	/	3	3	0.1	i	-4.8	-3	24	/

# Other results:
cpd	SMILES	UCH37 inh	Ecoli rRNA inh	Ecoli rRNA inh OD600	Ecoli rRNA inh RFP	FGF22 binding	HNF4A DNA FP	ALR H2O2 inh	B2AR ag	E coli growth
26	CCCC(=O)Nc1ccc2c(c1)nc1n2CCN(C2CCCCC2)C1	-36	5	6	1.0	i	6.4	-117	8	0.69
27	CCOC(=O)Cc1nn(CC)c(=O)c2ccccc12	0.6	7	1	-4.4	i	0.9	1	0	0.71
28	CCCNC(=O)C(Cc1cccc(Cl)c1)NC(=O)c1ccc(C#N)cc1 (stereo not drawn)	27*	6	9	-9.8	i	1.2	2	2	0.71
29	COc1cc(/C=N/NC(N)=O)c(Br)cc1OCC(=O)Nc1ccccc1C	/	/	/	/	/	-1.5	-2	3	/
30	COc1ccc(-c2[nH]n(-c3ccc([N+](=O)[O-])cc3)c(=O)c2C=NCc2ccncc2)cc1	7.2	-1	5	-1.4	i	0.2	-4	7	0.71
31	CCOC(=O)c1nn(-c2ccccc2C)c2nc(-c3ccc(C)cc3)c(C#N)c(=O)n12	-10.0	/	/	/	/	-3.0	-19	2	0.73
32	Cc1ccc(/C=C/S(=O)(=O)NCC(=O)OCC(=O)NCc2ccccc2)cc1	1.7	5	12	5.9	i	1.2	-12	-6	0.72
33	Cc1ccc(C2=NN(CC(=O)NCCC(C)C)C(=O)CC2)cc1	0.6	5	17	0.7	i	-1.5	-6	0	0.69
34	N#Cc1c(Cc2cccc3ccccc23)nn(CCO)c1N	3.9	-10	-7	-3.7	i	0.1	4	-5	0.68
35	COc1cc(NC(=O)OCc2ccccc2)c2ncccc2c1	0.1	9	-6	-3.8	i	1.9	/	5	0.63
36	CCN(CC)CCN(C(=O)c1ccc2ccccc2c1)c1nc2cc3c(cc2s1)OCO3	2.4	-8	-24	0.9	i	-0.1	-4	-2	0.7
37	O=C1CCN(Cc2ccccc2)C=C1c1ccc(C(F)(F)F)cc1	4.6	-32	-39	-2.6	i	-1.8	0	3	0.67
38	CCO[C@H]1OC(C(=O)N2CCN(Cc3ccccc3)CC2)=C[C@@H](c2ccc(C(F)(F)F)cc2)[C@@H]1CCCO	1.2	-44	-69	-0.3	i	1.7	-32	0	0.79
39	CC1CCCN(C(=O)Cn2c3ccccc3c3nc4n(c(=O)c32)CCS4)C1 (stereo not drawn)	-38	1	10	-1.5	i	-2.1	30	-7	0.69
40	Cc1ccc(S(=O)(=O)N(C)CC(=O)Nc2ccncc2)cc1	1.9	/	/	/	/	2.1	-2	-4	0.69
41	O=C1c2ccccc2-c2onc3ccc(N4CCCC4)c1c23	9.7	-32	14	28	i	-4.9	/	-10	0.81
42	COC(=O)c1cc2occc2n1CC(=O)Nc1cc(OC)cc(OC)c1	0.0	/	/	/	/	0.9	-3	10	0.69
43	CC(=O)Nc1ccc(C(=O)N/N=C/c2cccnc2)cc1	/	17	14	-0.5	i	-0.3	6	-9	/
44	CN(C)S(=O)(=O)c1ccc(Oc2ccc(S(=O)(=O)N(C)C)cc2)cc1	5.0	/	/	/	/	-2.0	1	-1	0.71
45	Cc1cc(C)n(C(=O)CNc2ccc(C)c(C)c2)n1	1.5	/	/	/	/	0.5	4	2	0.72
46	CC(C)CN(C(=O)CSc1nncs1)c1c(N)n(CC(C)C)c(=O)[nH]c1=O	-1.1	/	/	/	/	-11	-1	5	0.67
47	COc1cc(/C=C/C(=O)OCC(=O)N2CCCc3ccccc32)ccc1OC(F)F	-2.1	1	-4	4.1	i	-1.5	-61	4	0.64
48	CC(C)CC1NC(=O)N(CC(=O)N2CCN(S(=O)(=O)c3ccccc3)CC2)C1=O (stereo not drawn)	1.8	/	/	/	/	1.5	-21	0	0.73
49	CSCCC(C(=O)OCC(=O)c1ccc(C)c(C)c1)N1C(=O)c2ccccc2C1=O (stereo not drawn)	0.0	-10	4	1.1	i	-3.5	-4	2	0.74
50	CCn1c(=S)ccc2ccc(OC)cc21	5.3	/	/	/	/	-3.8	-15	6	0.69

# 6 records picked at random from the list so far:
cpd	SMILES	UCH37 inh	Ecoli rRNA inh	Ecoli rRNA inh OD600	Ecoli rRNA inh RFP	FGF22 binding	HNF4A DNA FP	ALR H2O2 inh	B2AR ag	E coli growth
43	CC(=O)Nc1ccc(C(=O)N/N=C/c2cccnc2)cc1	/	17	14	-0.5	i	-0.3	6	-9	/
49	CSCCC(C(=O)OCC(=O)c1ccc(C)c(C)c1)N1C(=O)c2ccccc2C1=O (stereo not drawn)	0.0	-10	4	1.1	i	-3.5	-4	2	0.74
45	Cc1cc(C)n(C(=O)CNc2ccc(C)c(C)c2)n1	1.5	/	/	/	/	0.5	4	2	0.72
11	CCN1CCN(C(c2cc3cc4c(cc3[nH]c2=O)OCO4)c2nnnn2C(C)(C)CC)CC1 (stereo not drawn)	i	/	/	/	/	3.2	/	0	0.68
46	CC(C)CN(C(=O)CSc1nncs1)c1c(N)n(CC(C)C)c(=O)[nH]c1=O	-1.1	/	/	/	/	-11	-1	5	0.67
22	O=C(COC(=O)C1C2CC3OC(=O)C1C3C2)Nc1ccc(F)cc1 (stereo not drawn)	3.4	8	7	0.1	i	-0.8	-1	-2	0.68

# (list continues)
cpd	SMILES	UCH37 inh	Ecoli rRNA inh	Ecoli rRNA inh OD600	Ecoli rRNA inh RFP	FGF22 binding	HNF4A DNA FP	ALR H2O2 inh	B2AR ag	E coli growth
51	Cc1noc(C)c1COc1ccc(C(=O)OCC(=O)NCc2ccccc2Cl)cc1	3.7	-13	-17	-1.8	i	-3.1	-20	1	0.71
52	c1ccc(Nc2nc(-c3cccnc3)cs2)nc1	1.7	/	/	/	/	1.2	1	-10	0.7
53	CCN(C(=O)CN1C(=O)NC2(CCc3ccccc32)C1=O)C1CCS(=O)(=O)C1 (stereo not drawn)	1.2	27	15	3.0	i	-1.6	/	5	0.68
54	C=CCN(CC=C)S(=O)(=O)c1ccc(C(=O)Nc2nnc(CSC)o2)cc1	0.3	-31	-53	5.3	i	-0.9	38	7	0.67
55	COCCN1C[C@@H](CO)O[C@@H](n2cnc3c(N(C)C(C)C)ncnc32)C1	/	2	5	1.7	i	1.1	/	/	/
56	Cc1cc(F)ccc1S(=O)(=O)N1CCCOC1CNC(=O)C(=O)NC1CCCCC1 (stereo not drawn)	-0.5	5	4	0.6	i	3.6	3	-4	0.69
57	O=C1CN(c2ccccc2)C(=S)N1c1ccccc1	0.7	11	-1	0.8	i	-1.6	-4	0	0.66
58	COc1ccc(OC)c(C(=O)NC(CC(N)=O)c2ccc(N3CCC(Cc4ccccc4)CC3)c([N+](=O)[O-])c2)c1 (stereo not drawn)	4.8	2	-10	18	i	1.4	-3	0	0.66
59	CC(=C/c1ccc(C(C)C)cc1)/C=N/NC(=O)Cn1nnnc1N	/	6	13	3.1	i	-0.2	-3	-4	/
60	CCOc1ccccc1NC(=O)Cc1coc2cc(C)ccc12	4.9	/	/	/	/	-0.7	-3	5	0.75
61	CC(C)(C)Nc1nc(Cl)nc(N(C#N)CN2C(=O)c3ccccc3S2(=O)=O)n1	1.0	14	26	11	i	-2.1	92*	45*	0.67
62	CN(C)Cc1nc2ccccc2c(=O)n1Cc1nc(-c2cccc([N+](=O)[O-])c2)cs1	2.2	-24*	1.5*	1.0*	i	-2.6	-3	-2	0.71
63	CC(NC(=O)CSc1nnc2n1CCCCC2)c1ccccc1Cl (stereo not drawn)	-0.1	/	/	/	i	-2.9	0	-6	0.69
